# Assay outcomes (PubChem BioAssay)
# A1 inh: inhibitors of the anti-apoptotic protein A1, read as caspase activation; MEF A1-2A-BIM cells, Caspase-Glo 3/7 luminescence, 3 h; percent of clofoctol response, vehicle zero; caspase activation, % (test concentration not listed); 330,000 compounds, 0.066% hits;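 active means over half of replicate activation scores above 10%, or exactly half above 10 with the replicate mean above 10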;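 further: wells of about 30 µL received 50 nL stock; many hits fall short of the cut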
# LANA-H2A inh: blocks KSHV LANA binding to histone H2A/H2B; Q9QR71; cell-free LANA-H2A/H2B peptide, fluorescence polarization; inhibition, % (test concentration not listed); 320,000 compounds, 0.6% hits; AID 2629; in the data active means inhibition mostly above about 10%, no sharp cut-off; inactive means mostly below about 6.7%;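 further: stock transfer was 7.5 nL into about 10 µL; 0% = median of vehicle wells and 100% = median of positive control wells; one replicate is shown; the record names a cut of 25% in any replicate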
# Target sequence (Q9QR71 whole entry, looked up): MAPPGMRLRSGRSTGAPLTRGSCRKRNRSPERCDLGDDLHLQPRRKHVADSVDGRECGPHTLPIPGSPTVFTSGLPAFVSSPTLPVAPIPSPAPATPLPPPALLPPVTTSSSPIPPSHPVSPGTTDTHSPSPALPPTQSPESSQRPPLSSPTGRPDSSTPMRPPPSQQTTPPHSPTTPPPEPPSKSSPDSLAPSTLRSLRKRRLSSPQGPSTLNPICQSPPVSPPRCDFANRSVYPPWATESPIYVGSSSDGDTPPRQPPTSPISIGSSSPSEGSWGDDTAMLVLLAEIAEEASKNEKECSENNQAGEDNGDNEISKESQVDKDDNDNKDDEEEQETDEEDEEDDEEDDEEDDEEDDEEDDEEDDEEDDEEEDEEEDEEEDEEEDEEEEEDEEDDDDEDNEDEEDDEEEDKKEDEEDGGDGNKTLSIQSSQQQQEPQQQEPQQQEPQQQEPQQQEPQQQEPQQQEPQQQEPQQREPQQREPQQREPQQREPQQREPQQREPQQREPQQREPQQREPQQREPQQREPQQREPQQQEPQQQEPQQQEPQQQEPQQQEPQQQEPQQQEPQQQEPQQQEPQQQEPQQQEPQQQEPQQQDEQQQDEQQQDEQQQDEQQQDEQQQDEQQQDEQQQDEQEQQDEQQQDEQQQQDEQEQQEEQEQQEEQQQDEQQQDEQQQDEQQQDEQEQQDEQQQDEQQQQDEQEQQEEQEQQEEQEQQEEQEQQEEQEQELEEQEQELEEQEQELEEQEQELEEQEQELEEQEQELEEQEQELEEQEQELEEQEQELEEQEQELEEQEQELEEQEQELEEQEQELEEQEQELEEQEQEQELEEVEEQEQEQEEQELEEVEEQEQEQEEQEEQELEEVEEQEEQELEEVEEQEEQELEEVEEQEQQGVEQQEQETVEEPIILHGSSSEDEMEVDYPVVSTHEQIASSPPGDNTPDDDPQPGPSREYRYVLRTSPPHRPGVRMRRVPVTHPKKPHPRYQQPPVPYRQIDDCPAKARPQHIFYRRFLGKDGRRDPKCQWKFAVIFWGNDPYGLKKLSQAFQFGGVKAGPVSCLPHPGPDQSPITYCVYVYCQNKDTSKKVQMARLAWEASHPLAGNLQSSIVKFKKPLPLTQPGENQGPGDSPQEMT
# T cruzi inh: T. cruzi replication inhibition; AID 1885; T. cruzi beta-gal in NIH3T3, luminescence, 90 h; inhibition, % (test concentration not listed); 300,000 compounds, 1.4% hits;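 active means mean inhibition across valid replicates above about 55%, limit read from the data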;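 further: signal also drops with host cell toxicity which is not excluded here; 0% = plate median of DMSO wells and 100% = zero luminescence signal; higher percent means less beta-gal luminescence so fewer parasites; stock transfer was 50 nL into about 50 µL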
# Ecoli rRNA inh: inhibitors of bacterial rRNA selective over humanized ribosomes | E. coli WT GFP vs humanized-ribosome RFP mutants, fluorescence, 24 h; hits give low values; DMSO median 0, no signal -100 | GFP signal change (wild-type ribosome), % (test concentration not listed) | 350,000 compounds, 1.6% hits;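 active means significant combined selectivity score with lowered wild-type GFP, culture density cut under 30%, mutant RFP and density less affected; inactive means any of these conditions unmet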; further: one replicate is shown; some compounds called inactive have numbers as strong as hits
# ALR inh: inhibitors of human sulfhydryl oxidase ALR | AID 485317 | inhibition, % (test concentration not listed) | purified ALR, DTT oxidation, H2O2 HRP-luminol luminescence | 290,000 compounds, 3.8% hits | P55789;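 active means mean and each replicate at 75% or more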;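 further: stock transfer was 7.5 nL into about 7.5 µL; 0% = neutral wells and 100% = wells with inactivated enzyme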
# Beta2AR agonist: human beta-2 adrenergic receptor agonism by FAP | response, % (test concentration not listed) | AID 504454 | Am2.2-beta2AR cells, FAP receptor internalization, flow cytometry; reference of the scale not given here | P07550 | 340,000 compounds, 0.43% hits;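 active means response above a set limit, near 3 SD of response in nonfluorescent compounds, cut at about 42% in these data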;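 further: stock transfer was 100 nL into about 11 µL; a reference agonist was the positive control; negative values mostly stem from fluorescent compounds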
# Beta cell apopt: blocks beta cell apoptosis; INS-1E cytokine-induced death, ATP luminescence, 48 h; percent of positive-control rescue, neutral wells zero; AID 435005; protection from apoptosis, % (concentration not given with the values); 300,000 compounds, 0.8% hits;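 active means all replicates at 75% or more, or half of them and the mean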;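 further: 0% = cytokine-treated negative control wells and 100% = positive control rescue; higher means more ATP so stronger rescue from cytokine killing; wells of about 40 µL received 100 nL stock; the first replicate is given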
# Calb FLC: affects C. albicans growth with fluconazole | C. albicans CaCi-2 (fluconazole-resistant clinical isolate) + fluconazole, Alamar Blue growth, 48 h | 300,000 compounds, 0.57% hits | AID 1979 | growth inhibition, % (concentration not given with the values);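 active means most replicates above 75%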;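 further: all wells also contain fluconazole at 8 µg/ml as a sub-toxic cotreatment; 0% = median of DMSO wells and 100% = median of geldanamycin control wells; wells of about 8 µL received 7.5 nL stock; the first replicate is given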
# Ecoli rRNA inh OD600: recorded beside Ecoli rRNA inh, whose call it bears; OD600 change, %; measured here: OD600 growth;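 optical density of the mix in the first replicate; 0 = DMSO median and -100 = no signal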
# Ecoli rRNA inh RFP: further read-out of Ecoli rRNA inh, marked with its call; RFP signal change, %; measured here: RFP humanized mutant strains;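 first replicate; 0 = DMSO median and -100 = no signal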
# The depositor's hits bear a star; / = not tested or not shown. A portion of the library. The share of hits here may be higher or lower than overall.
# Below each SMILES: A1 inh	LANA-H2A inh	T cruzi inh	Ecoli rRNA inh	Ecoli rRNA inh OD600	Ecoli rRNA inh RFP	ALR inh	Beta2AR agonist	Beta cell apopt	Calb FLC
CC1(C)Cc2nc3[nH]c(=S)n(-c4ccccc4)c(=O)c3cc2CO1
  -0.1	0.9	6	/	/	/	9	-5	-1	-15
CCN(CC)S(=O)(=O)c1ccc(N2CCCC2)c(NS(=O)(=O)c2ccccc2)c1
  -1.2	0.4	-5	/	/	/	19	4	-1	-18
COCC(C)n1c(SCc2nc3ccccc3c(=O)[nH]2)nc2ccccc2c1=O (stereo unspecified)
  -1.1	4.5	-3	12	7	13	66	-5	-6	-8
CCOc1ccc(/C=C2\SC(=S)N(CC(=O)NCCCN3CCOCC3)C2=O)cc1
  0.4	-3.1	5	-15	0	0.4	9	0	1	-5
COc1cccc(-c2nnc(SCC(=O)Nc3cc(C)on3)n2C)c1
  0.0	2.6	8	7	1	-2.5	-14	16	-4	-12
Cn1c(=O)c2c(SCC(=O)N3CCCc4ccccc43)nc(CC(C)(C)C)nc2n(C)c1=O
  -0.5	1.9	16	/	/	/	/	8	4	0
CCCOC(=O)c1ccc(NC(=O)Cc2cccs2)cc1
  -1.4	-3.0	-4	-30	-36	0.9	-11	4	-1	25
O=C1C2C3C=CC(C4CC34)C2C(=O)N1/N=C/c1ccc(-c2ccccc2[N+](=O)[O-])o1 (stereo unspecified)
  0.6	-5.1	1	/	/	/	-20	42*	23	-6
COC(=O)c1sc2nc(C)nc(SCC(=O)Nc3sccc3C(N)=O)c2c1C
  0.3	2.1	/	-2	-4	0.9	-2	16	-7	/
O=C(Nc1cccc(C(F)(F)F)c1)NC1CCN(S(=O)(=O)c2ccc(F)cc2)CC1
  1.7	0.0	-11	/	/	/	8	2	/	-4
CCN1CCN(c2ccc(S(=O)(=O)N3CCCCC3)cc2NC(=O)CC(C)c2ccccc2)CC1 (stereo unspecified)
  -0.9	0.7	50	4	5	-0.7	1	28	2	-1
COc1ccc(Cc2nnc(-c3ccc(F)cc3)o2)cc1OC
  0.2	3.0	-10	-9	-7	0.0	/	-10	-2	1
COC(=O)c1nn(-c2ccccc2)c2nnc(Cc3ccc(C)cc3)c(=O)n12
  0.1	-0.7	-10	/	/	/	-2	-3	-5	30
Cc1ccnc(NC(=O)COc2ccc3oc4c(c3c2)CCCC4)c1
  0.8	0.8	-3	/	/	/	2	-7	-21	8
CCOc1ccc(-n2c(=O)c3sccc3n(CC(=O)NC3CCCCC3)c2=O)cc1
  -0.5	29*	-12	-1	-2	-4.2	0	-3	-1	1
CC1(C)CC(=O)C2=C(C1)Oc1ncn(Cc3ccco3)c(=N)c1C2c1ccccc1 (stereo unspecified)
  0.5	-1.1	16	/	/	/	-4	-1	-5	0
S=C(NCc1ccco1)Nc1ccccn1
  0.5	0.5	-3	10	9	-4.0	-26	0	-1	-2
CCCCN(C(=O)COC(=O)CSc1cc(C)c2ccccc2n1)c1c(N)n(CCC)c(=O)[nH]c1=O
  -2.1	-1.7	-13	8	4	1.0	6	-3	4	-11
CC(C)C(=O)NS(=O)(=O)c1ccc(N)cc1
  -1.6	-4.7	-14	/	/	/	-2	-1	0	10
Oc1oc(C=Nc2ccc(F)cc2F)c2ccccc12
  0.4	4.4	-4	14	17	4.4	-7	-4	-6	-36
Cn1c(NCc2ccccc2)nc2c1c(=O)n(Cc1ccccc1)c(=O)n2C
  0.1	-1.5	-36	-3	5	-1.9	1	0	11	0
Cc1cc(NC(=O)CSc2nc3c(C)cccc3cc2C#N)no1
  0.3	-6.1	14	12	17	23	/	13	6	-2
COC(=O)C1N2C(=O)[C@@H](NC(=O)COc3ccccc3)[C@H]2SC1(C)C (stereo partly specified)
  -0.2	0.0	-7	10	5	-0.3	6	-6	-2	-3
COc1ccc(NS(=O)(=O)c2ccc(OCC(=O)N3CCOCC3)cc2)cc1
  0.2	6.9	-23	/	/	/	7	1	1	-8
Fc1cccc(Cn2cc(C(=S)N3CCCCC3)c3ccccc32)c1
  -0.6	2.2	6	/	/	/	-5	4	-4	-2
Cc1nc(S(=O)(=O)c2ccc(Cl)cc2)c(NCc2ccccc2)o1
  -0.4	-1.5	-19	/	/	/	6	1	-6	-15
CCCn1c(SCC(=O)c2c[nH]c3ccccc23)nnc1-c1ccncc1
  -0.4	-0.5	-6	/	/	/	/	-13	-1	1
O=C(/C=C/c1cn(-c2ccccc2)nc1-c1cccnc1)NCCN1CCOCC1
  0.1	0.8	/	1	19	12	/	-11	4	15
O=C(O)c1ccc(N2C(=O)c3[nH]nc(-c4ccccc4)c3C2c2ccccc2)cc1 (stereo unspecified)
  -0.2	1.6	-3	-11	-5	3.2	/	-12	-1	7
O=C(Nc1nnc(-c2ccccc2)s1)c1cccc(S(=O)(=O)N2CCOCC2)c1
  0.7	0.0	8	/	/	/	5	-8	-3	26

# Part of the list above in order of count of non-hydrogen atoms, rising.
# Below each SMILES: A1 inh	LANA-H2A inh	T cruzi inh	Ecoli rRNA inh	Ecoli rRNA inh OD600	Ecoli rRNA inh RFP	ALR inh	Beta2AR agonist	Beta cell apopt	Calb FLC
Fc1cccc(Cn2cc(C(=S)N3CCCCC3)c3ccccc32)c1
  -0.6	2.2	6	/	/	/	-5	4	-4	-2
COc1ccc(NS(=O)(=O)c2ccc(OCC(=O)N3CCOCC3)cc2)cc1
  0.2	6.9	-23	/	/	/	7	1	1	-8
CC1(C)CC(=O)C2=C(C1)Oc1ncn(Cc3ccco3)c(=N)c1C2c1ccccc1 (stereo unspecified)
  0.5	-1.1	16	/	/	/	-4	-1	-5	0

# Next part
# Below each SMILES: A1 inh	LANA-H2A inh	T cruzi inh	Ecoli rRNA inh	Ecoli rRNA inh OD600	Ecoli rRNA inh RFP	ALR inh	Beta2AR agonist	Beta cell apopt	Calb FLC
O=C(OCC(=O)c1ccccc1Br)c1ccccn1
  0.0	-3.0	-8	/	/	/	-13	-6	-1	3
Cc1nc(C)c(-c2ccn(S(=O)(=O)c3ccc(Cl)cc3)n2)o1
  1.1	-1.1	-4	-19*	-4.1*	-1.6*	5	-11	3	-22
COC(=O)c1ccc(NC(=S)N2CCN(C(=O)c3ccco3)CC2)cc1
  0.9	-0.8	-3	-12	-12	5.4	-8	6	-6	12
COc1ccc(N2CC(C(=O)Nc3c4c(nn3-c3ccc(OC)cc3)CS(=O)(=O)C4)CC2=O)cc1 (stereo unspecified)
  0.2	-1.5	12	0	6	0.0	-49	2	-6	1
CC12CCC(C(=O)NCCCN3CCOCC3)(C(Br)C1=O)C2(C)C (stereo unspecified)
  0.8	3.5	2	8	11	-0.2	-9	6	-9	-7
Cc1occc1C(=O)NNC(=O)c1ccccc1F
  -1.5	2.2	-4	22	24	6.5	23	6	10	-2
COC(=O)c1ccc(NC(=O)COc2ccccc2OC)cc1
  0.6	0.9	-6	/	/	/	-4	-3	-4	0
COC(=O)c1ccc(CSc2nc3ccccc3s2)o1
  -2.0	-1.9	2	-33*	-2.3*	-2.7*	2	11	-1	0
O=C1CCCN1CCCNc1nc2c(S(=O)(=O)c3ccc(Br)cc3)nnn2c2ccccc12
  -1.9	5.8	6	-2	-1	-0.9	-4	9	1	16
O=C(Nc1ccc(F)cc1)c1cc(-c2ccccn2)nc2c(Cl)cccc12
  0.2	0.3	4	3	5	1.1	-7	-1	11	1
COc1ccc(/C=C/C(=O)NCC(=O)N/N=C(/C)c2ccc(Cl)cc2)cc1
  -0.5	0.8	-1	-2	-3	-0.3	-9	-2	-3	-9
CC1=NN(c2ccc(Br)cc2)C(=O)/C1=C/c1ccc(-c2ccccc2C(=O)O)o1
  -0.1	-0.4	-5	3	-1	5.0	/	10	0	-18
Fc1ccc(NC(=S)Nc2cccnc2)cc1
  -0.4	-1.5	-17	9	-8	2.5	18	2	-3	-32
N/C(=N\OC(=O)Cc1ccccc1)c1ccccn1
  -1.8	-1.4	-5	/	/	/	-12	-1	-11	5
CCc1cccc(C)c1NC(=O)CN(C)S(=O)(=O)c1ccc(-c2ccc(=O)[nH]n2)s1
  -0.4	2.5	5	-4	-3	2.1	8	1	/	5
O=C(c1ccccc1)[C@H]1CC=CC[C@H]1C(=O)O
  -1.3	-7.0	-25	/	/	/	-6	1	-9	-6
O=S1(=O)CCO[C@H]2Cc3ccccc3[C@H]2N1Cc1cccc(C(F)(F)F)c1
  0.6	-0.7	-8	-15	-43	-5.7	1	1	-15	-1
C/C(N)=C(/C#N)C(=O)COC(=O)C(c1ccccc1)c1ccccc1
  0.5	5.2	-5	18	13	-0.4	28	-2	-10	-12
Cc1nc(CS(=O)c2ccc(Cl)cc2)cc(N2CCOCC2)n1 (stereo unspecified)
  0.9	0.6	-19	/	/	/	-2	-5	-5	-1
CCOc1cc(N2CCOCC2)c(OCC)cc1NC(=O)c1ccc(OC(C)C)cc1
  0.0	0.2	22	4	13	0.7	-14	10	8	30
N#C/C(=C\c1ccc(Cl)s1)C(=O)N1CCN(c2ccccc2)CC1
  0.6	3.4	8	/	/	/	68	1	3	-4
O=c1oc2ccccc2cc1-c1csc(Nc2ccc(O)cc2)n1
  -0.7	-0.2	-25	-45	-62	-23	33	14	-1	38
CCc1ccc(S(=O)(=O)Nc2ccc(O)c3c(=O)cc(-c4ccccc4Cl)oc23)cc1
  -0.4	5.0	-1	-4	4	-5.5	3	1	4	-7
CC(C)NC(=O)Cn1cnc2c(cnn2-c2ccc(F)cc2)c1=O
  -0.2	2.3	-11	8	20	5.1	-16	-3	-9	-4
Nc1c(S(=O)(=O)c2cc(Cl)ccc2Cl)c2nc3ccccc3nc2n1CCN1CCOCC1
  0.1	0.5	43	/	/	/	1	-3	5	31
O=C(O)c1ccc(CSc2nnc(COc3ccc(Cl)cc3Cl)o2)cc1
  0.5	1.3	-14	-46	-69	-13	16	-3	3	2
C=CCN(C(=O)c1csnn1)C(C(=O)NC1CCCCC1)c1ccc(Cl)cc1 (stereo unspecified)
  0.1	-1.2	-15	-4	6	-0.4	9	3	5	13
C/C(=C\c1ccccc1)CN1CCN(c2cccc(Cl)c2)CC1
  0.8	-3.2	-10	/	/	/	-3	-1	/	9
Cc1nc(-c2cc(-c3nc(-c4cc(C(F)(F)F)cc(C(F)(F)F)c4)no3)no2)cs1
  1.5	4.4	2	4	4	1.5	-5	7	-3	10
CN(C)C(CNC(=O)c1cccc(S(=O)(=O)N2CC3(C)CC2CC(C)(C)C3)c1)c1ccco1 (stereo unspecified)
  -1.2	2.3	12	/	/	/	-3	-7	-3	-5
C[C@H]1CN=C(N(C)C)N1CCc1cccc(F)c1
  -0.5	-5.7	/	1	9	-4.4	/	3	-1	/
Nn1c(SCC(=O)N2CCCc3ccccc32)nnc1-c1ccccc1
  -0.3	-0.1	-9	/	/	/	-6	0	-4	1
C=CCn1c(COc2ccc(OC)cc2)nnc1SC(C)C(=O)NC1CC1 (stereo unspecified)
  2.2	-0.5	/	0	0	-2.8	-5	-5	6	/
N/C(=N\OC(=O)c1ccc2c(c1)OCO2)c1cccc([N+](=O)[O-])c1
  -2.6	-1.3	5	11	5	0.6	64	6	2	-10
COc1ccc(S(=O)(=O)NCc2ccccn2)cc1NC(=O)c1ccc(C)cc1
  0.3	1.1	7	1	0	1.4	-1	-6	/	-1
CCOC(=O)c1sc(=S)n(-c2ccc(Cl)cc2)c1C
  -0.1	2.7	8	/	/	/	-6	1	5	-9
